Assay outcomes: PubChem, National Center for Advancing Translational Sciences (NCATS)
2A StopGo: High Throughput Screening for Foot and Mouth Disease Virus Antivirals | human cells with a luciferase reporter of 2A StopGo recoding; control for the full effect not named in the record | Potency, µM (highest dose often 57.9 µM), inactives show at the highest dose signal change, negative = less light | actives 1.2% (n = 410,000); active = well fitted falling curve with a large enough effect; inconclusive = small, poorly fitted or top-dose-only effect; inactive = no such curve, though single readings can be large or run the other way; tested in HEK293T cells; note: % is set by controls: 0 for no effect and ±100 for the full control effect; nearly all actives have a fitted effect of over 45% in size; luciferase light after 4 h
Marburg entry inh: qHTS for inhibitors of binding or entry into cells for Marburg Virus | Marburg virus pseudotyped entry inhibition, cell reporter; control for the full effect not named in the record; about a third of the inactives were read at about 46 µM | Potency, µM (top dose mostly 37.8 µM), without a hit: at the top dose activity change, negative = inhibition, actives largely listed as inhibitors | actives 1.8% (n = 300,000) | AID 540276, 2011; active = well fitted inhibition curve with a large enough effect; inconclusive = small, poorly fitted or top-dose-only effect, or effect the other way; inactive = flat fitted curve, though single readings scatter; tested in HEK293 cells; about a fifth of its hits are not listed in these tables; note: % is set by controls: 0 for no effect and ±100 for the full control effect; luciferase read-out
SARS PLpro yeast: qHTS of Yeast-based Assay for SARS-CoV PLP; Potency, µM (series often up to 32.9 µM), for the others: at the highest dose activity, positive = growth rescue; actives 0.19% (n = 330,000); S. cerevisiae expressing SARS-CoV PLpro, growth rescue; control for the full effect not named in the record; note: 0% is about no effect; nearly all actives have a fitted effect of over 55% in size; growth read by luminescence after 48 h
NS1 function inh: qHTS Assay for Inhibitors of Influenza NS1 Protein Function; S. cerevisiae slowed by influenza A NS1, growth recovery by OD600; Potency, µM (titrated, usually from 46.1 µM), for the others: at the top dose activity, positive = more growth; actives 0.4% (n = 270,000); note: actives are rising curves; nearly all actives have a fitted effect of over 50% in size
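Growth recovery, yeast-based: influenza A NS1 expressed in S. cerevisiae causes slow growth, and suppressors are detected by OD600. The parent strain without NS1 is used as positive control.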
LASV entry inh: qHTS for Inhibitors of binding or entry into cells for Lassa Virus; Lassa virus pseudotype entry inhibition, cell reporter; control for the full effect not named in the record; Potency, µM (series often up to 37.9 µM), for inactives: at the highest dose activity change, negative = inhibition, most hits filed as inhibitors; actives 1.2% (n = 300,000); active means well fitted inhibition curve with a large enough effect; inconclusive means small, poorly fitted or top-dose-only effect, or effect the other way; inactive means flat fitted curve, though single readings scatter; tested in HEK293 cells; note: % is set by controls: 0 for no effect and ±100 for the full control effect; nearly all actives have a fitted effect of over 50% in size; luciferase read-out
Cruzain noTriton: qHTS Assay for Promiscuous and Specific Inhibitors of Cruzain (without detergent); AID 1476, 2009; Cruzipain (Trypanosoma cruzi), P25779; purified cruzain, Z-FR-AMC fluorescence, no detergent; Potency, µM, inactives show max response, negative = inhibition, usual class: inhibitors; actives 2.3% (n = 200,000); active = well fitted curve in the direction sought with a large enough effect; inconclusive = small, poorly fitted or top-dose-only effect, or another doubt; inactive = no such curve, though single readings can be large; an effect the other way counts as inactive or inconclusive;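 note: plate controls were enzyme without inhibitor for no effect and buffer without enzyme for full effect; nearly all actives have a fitted effect of over 40% in size; top concentration of the series not given in the record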
Target sequence (P25779 123-467 limits assumed): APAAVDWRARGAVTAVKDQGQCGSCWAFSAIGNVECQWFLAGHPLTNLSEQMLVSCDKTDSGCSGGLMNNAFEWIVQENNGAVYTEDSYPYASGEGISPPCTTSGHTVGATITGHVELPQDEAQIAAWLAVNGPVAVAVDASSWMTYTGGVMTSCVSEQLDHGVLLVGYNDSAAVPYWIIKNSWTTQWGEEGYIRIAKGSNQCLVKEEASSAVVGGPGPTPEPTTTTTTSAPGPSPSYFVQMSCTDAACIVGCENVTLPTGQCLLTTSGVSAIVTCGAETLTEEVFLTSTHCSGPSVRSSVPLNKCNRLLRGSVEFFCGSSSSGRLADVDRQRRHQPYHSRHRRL
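Detergent-free condition (0.00005% Triton X-100) in acetate buffer pH 5.5 with DTT. 1.5 nM enzyme and compound were pre-mixed 15 min, then 2 uM Z-FR-AMC substrate added; reaction progress from fluorescence change between first and third reads (60 s).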
Cruzain inh Det: qHTS Assay for Promiscuous and Specific Inhibitors of Cruzain (with detergent). purified cruzain, Z-FR-AMC fluorescence, 0.01% Triton. Potency, µM, for the others: max response, negative = inhibition, most hits filed as inhibitors. Cruzipain (Trypanosoma cruzi), P25779. actives 0.43% (n = 200,000); active = well fitted curve in the direction sought with a large enough effect; inconclusive = small, poorly fitted or top-dose-only effect, or another doubt; inactive = no such curve, though single readings can be large; an effect the other way counts as inactive or inconclusive;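 note: plate controls were neutral wells for no effect and buffer without enzyme for full effect; nearly all actives have a fitted effect of over 40% in size; top concentration of the series not given in the record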
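Read-out: AMC fluorescence (360 nm excitation, 450 nm emission), four reads over 2 min, first-to-third difference used. Conditions: cruzain 1.5 nM, Z-FR-AMC 2 uM, pH 5.5 acetate, 5 mM DTT, 0.01% Triton X-100.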
RE007 growth inh: qHTS Assay for Inhibitors of the HIV-1 protein Vpr. S. pombe RE007 Vpr strain, BacTiter-Glo ATP luminescence, 24 h; control for the full effect not named in the record. Potency, µM (series often up to 92.2 µM), for the others: top-dose activity change, negative = less growth. actives 0.21% (n = 360,000); active = well fitted falling curve with a large enough effect; inconclusive = small, poorly fitted or top-dose-only effect; inactive = no such curve, though single readings can be large or run the other way;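 note: % is set by controls: 0 for no effect and ±100 for the full control effect; nearly all actives have a fitted effect of over 50% in size; the assay follows cell death caused by Vpr and the record does not say whether a fall means rescue or toxicity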
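Fission yeast strain RE007, carrying one chromosomally integrated HIV-1 vpr copy, was seeded at OD 0.01 in PMG+AL medium with 23 nL pinned compound. After 24 h at 30 °C and 99% humidity, viability was read by BacTiter-Glo luminescence.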
* marks the source's active call; other numbers are inactive results; u = inconclusive; x = no result given; [ ] = dose if it differs, or a comment. Unless noted, calls come from the whole dose curve; as a rule, active means well fitted rising curve with a large enough effect; inconclusive means small, poorly fitted or top-dose-only effect; inactive means no such curve, though single readings can be large or run the other way. Potency is the fitted concentration of half-maximal effect. Compounds were not picked by outcome. About 4.8% of those tested had a hit in this group.

no.	Molecule	2A StopGo	Marburg entry inh	SARS PLpro yeast	NS1 function inh	LASV entry inh	Cruzain noTriton	Cruzain inh Det	RE007 growth inh
1	O=S(=O)(c1ccc(Cl)cc1)n1cnc2ccccc21	6%	15%[46.1 µM]	-1%	16%	-2%[46.1 µM]	x	x	-20%
2	Cc1nnc(N2CCCC(C(=O)NCc3cccc(F)c3)C2)c2nn(-c3ccccc3)c(C)c12 (stereo not drawn)	-1%	x	-1%	-5%	x	x	x	3%
3	Cc1cc(N(CCO)CCO)ccc1N=Nc1cc(F)ccc1F	40%[activator]	u	-15%	x	18%	x	x	-15%
4	CCC12C(=O)C(CC)(C(c3ccccc3)=C1c1ccccc1)[C@@H]1C(=O)N(c3ccc(C)cc3)C(=O)C12 (stereo partly drawn)	-23%	-21%	7%	7%	-4%	u	-3.9%	3%
5	Nc1nonc1-n1nnc(C(=O)N/N=C/c2ccoc2)c1CSc1ccc(Cl)cc1	-10%	x	-4%	-2%	x	x	x	0%
6	COc1ccccc1NC(=O)Cc1noc(CSc2nnc(C)n2C)n1	-14%	x	2%	13%	x	x	x	14%
7	CC(=O)Nc1cccc(C(=O)OCC(=O)N2CCC(c3ccccc3)=N2)c1	21%	u	-1%	x	21%	x	x	-10%
8	CC(C)N1C(=O)CCC1C(=O)N1CCN(c2ccccn2)CC1 (stereo not drawn)	-14%	-7%	4%	u	-10%	-6%	0.3%	-2%
9	COc1ccc(-c2nc3ccccc3nc2-c2ccccc2)cc1OC	u	u	-11%	24%	-18%	x	x	3%
10	COc1ccc(-c2csc(NC(=O)c3ccccc3Br)c2C(=O)O)cc1	24%	2%	-1%	-33%	-5%	x	x	9%
11	CCOC(=O)C1=C(N)OC2=C(C(=O)CCC2)C1c1ccco1 (stereo not drawn)	-5%	7%	6%	-1%	17%	15%	-2.4%	-12%
12	NC(=O)NN=C1CC2CC1C1C=CCC21 (stereo not drawn)	-3%	u	x	x	5%	x	x	26%
13	CC(C)(C)S(=O)(=O)/C(C#N)=N/Nc1ccc(S(C)(=O)=O)cc1	-9%	-13%[46.1 µM]	7%	x	-7%	x	x	-7%
14	Cc1ccccc1N1C(S)=C(C#N)C(=O)NC12CCCCC2	-21%	0%	-6%	20%	-6%	0%	2.7%	3%
15	Cc1ccccc1OCC(=O)N(Cc1ccc(C(C)C)cc1)C1CCS(=O)(=O)C1 (stereo not drawn)	-19%	-16%[46.1 µM]	x	x	5%[46.1 µM]	u	-9.4%	x
16	O=C(CN1CCN(S(=O)(=O)c2ccc(Br)cc2)CC1)c1ccc(O)c(O)c1	-21%	x	-2%	11%	x	x	x	6%
17	COc1ccccc1-n1nnnc1SCC(=O)NC1CCCCC1	17%	-2%[46.1 µM]	0%	-4%	-25%	x	x	9%
18	Cc1cccc(/N=C/c2sc3ccccc3c2O)n1	-16%	x	-2%	-5%	x	x	x	-5%
19	CC(OC(=O)c1ccc2c(=O)n3c(nc2c1)CCCCC3)C(=O)Nc1ccc(F)cc1Cl (stereo not drawn)	-12%	18%	3%	9%	-2%	-10%	2.7%	-4%
20	COC(=O)c1ccc(Cn2c(SCc3ccccc3)nc3ccncc32)cc1	-3%	-10%[46.1 µM]	x	x	x	7%	-7.6%	x
21	COc1ccc(/C=C/C=N/NC(=O)COc2ccc(OC)cc2)cc1	28%	0%	-3%	7%	0.79µM*	0%	-4.9%	25%
22	N/C(Cc1ccc([N+](=O)[O-])cc1)=N\OC(=O)c1ccc([N+](=O)[O-])cc1	4%	5%	5%	-72%	-1%	-10%	-8.0%	4%
23	Cc1nn(C)cc1S(=O)(=O)N1CCN(c2ccc(F)cc2)CC1	-1%	-13%[46.1 µM]	2%	4%	-31%[46.1 µM]	x	x	12%
24	COc1ccccc1C(=O)COC(=O)c1cc([N+](=O)[O-])ccc1N1CCOCC1	7%	u	-3%	x	-10%	x	x	-24%
25	CCC(=NCc1cc(OC)cc(OC)c1)c1c(O)n(C2CCCCC2)c(=O)[nH]c1=O	u	x	-1%	6%	x	x	x	9%
26	CC(C)Oc1cccc(C(=O)C2CCCN(Cc3ccon3)C2)c1 (stereo not drawn)	-4%	u	-1%	-1%	-6%[46.1 µM]	x	x	3%
27	c1ccc(-c2ncnc3ccccc23)cc1	-27%	31%	x	x	11%	x	x	11%
28	Fc1ccc(-c2nc(-c3cccs3)c(-c3cccs3)[nH]2)cc1	0%	3%[46.1 µM]	x	x	-16%[46.1 µM]	-27%	-4.3%	x
29	O=C(OCC(=O)N1CCc2ccccc21)c1ccc[nH]c1=O	32%[activator]	u	-1%	x	-3%	x	x	1%
30	COC(=O)CN1C(=O)C2(OCCCO2)c2ccccc21	13%	u	4%	u	0%	13%	4.7%	9%
31	C[C@]12CC[C@H](O)CC1=CCC1C2CC[C@@]2(C)C1CCC21OCCO1 (stereo partly drawn)	-10%	-19%[46.1 µM]	-10%	x	1%[46.1 µM]	x	x	-2%
32	COC(=O)c1cc(C(=O)Nn2cnnc2)cc([N+](=O)[O-])c1	8%	x	2%	19%	x	x	x	-5%
33	COc1ccc(OC)c(/C=C/C(=O)c2ccc3c(c2)OCCO3)c1	-9%	x	-6%	-31%	x	x	x	5%
34	CCCC(=O)O[C@@H]1C[C@@H](C)N(C(=O)c2ccccc2)c2ccc(C)cc21	u	u	-13%	-16%	-12%	-2%	-5.2%	-8%
35	C#Cc1cccc(C(=O)N2CCCC(Nc3cccc(F)c3)C2)c1 (stereo not drawn)	u	x	u	-3%	x	x	x	-8%
36	CCS(=O)(=O)N1CCC(NC(=O)c2ccco2)CC1	0%	u	1%	-5%	11%	4%	5.4%	19%
37	COc1ccc(OCC(=O)Nc2sc3c(c2C(=O)NCC2CCCO2)CCC3)cc1 (stereo not drawn)	6%	20%	-2%	u	u	u	-4.6%	0%
38	Cc1cccc(Cn2c(=O)n(CC3CCC(C(=O)NC(C)C)CC3)c(=O)c3sccc32)c1 (stereo not drawn)	9%	x	x	x	6%[46.1 µM]	3%	-1.3%	x
39	Cc1ccc(S(=O)(=O)Nc2ncnc3ccccc23)cc1	8%	21%[46.1 µM]	-1%	-8%	-13%	x	x	14%
40	COc1ccc(Cl)c2c1[nH]c1nc(SCc3cccnc3)nnc12	-3%	8%[46.1 µM]	-1%	-1%	1%	x	x	-19%
41	N=c1n(CCCOc2ccc(F)cc2)c2ccccc2n1CC(N)=O	-15%	u	0%	4%	-8%	x	x	-12%
42	O=C(Cc1c(C(=O)O)[nH]c2ccccc12)NCCN1CCN(c2cccc(Cl)c2)CC1	-12%	24%	-11%	-10%	9%	25%	-2.0%	8%
43	O=C(CCCCC(=O)OC1CCCCC1)OC1CCCCC1	7%	u	x	x	25%[46.1 µM]	x	x	0%
44	C/C(Cn1nnc([N+](=O)[O-])n1)=N\NC(=O)c1ccc(Cl)c(Cl)c1	x	u	1%	-7%	-22%	1%	-2.5%	-16%
45	COc1ccc2c(c1)c(C(=O)CN1CCN(C)CC1)c(C)n2Cc1ccccc1	-24%	20µM*	5%	6%	-6%	-5%	-2.6%	-1%
46	O=C(CCNC(=O)c1ccc(Br)cc1)Nc1ccccc1N1CCCCC1	-30%	u	-10%	x	17%	x	x	2%
47	O=S(=O)(NC1c2cccc3cccc(c23)C1Sc1ncccn1)c1ccc(Cl)cc1 (stereo not drawn)	-20%	u	-20%	-5%	u	u	-4.4%	-1%
48	CCOc1ccc(S(=O)(=O)N(CC(=O)O)c2ccc(C)cc2)cc1	3%	15%	0%	-28%	2%	-9%	-2.5%	-1%
49	CC(C)c1ccc(-c2nnn(CCC(=O)O)n2)cc1	0%	u	-3%	u	u	-11%	2.5%	3%
50	O=C(O)c1cccc(N2CCCC2)c1	10%	11%	3%	-8%	17%	4%	-4.9%	17%
51	O=C(O)C1C2CC3OC(=O)C1C3C2 (stereo not drawn)	4%	12%[46.1 µM]	x	x	6%[46.1 µM]	x	x	4%
52	COc1ccc(-n2c(CNC(=O)c3ccc(S(=O)(=O)N4CCCC4)cc3)n[nH]c2=S)cc1	30%[activator]	u	2%	-5%	20%	-4%	3.4%	-10%
53	CCCCC1(O)CC(C(F)(F)F)=NN1C(=O)COc1ccccc1 (stereo not drawn)	x	-17%	-22%	-9%	0%	-6%	-5.0%	12%
54	CC(=O)Nc1ccc(NC(=O)C2CCCN2C(=O)NCc2ccccc2)cc1 (stereo not drawn)	0%	-4%[46.1 µM]	23%	1%	-3%[46.1 µM]	x	x	3%
55	Cc1ccc(-c2nn(-c3ccccc3)cc2C(=O)Nc2ccc(C)c(S(=O)(=O)N3CCOCC3)c2)cc1	5%	-11%	0%	10%	-4%	-17%	-2.2%	-8%
56	CC(=O)N1CCN(S(=O)(=O)c2ccc(C)cc2)C1C (stereo not drawn)	-12%	1%	x	x	19%	x	x	15%
57	CC(Sc1ccc(S(=O)(=O)N2CCN(C)CC2)cn1)C(=O)NC1(C#N)CCCCC1 (stereo not drawn)	-16%	23%	0%	x	1%	x	x	1%
58	CSc1cccc(N2CC(C(=O)Nc3cccc(S(=O)(=O)N4CCCC4)c3)CC2=O)c1 (stereo not drawn)	-28%	u	1%	x	0%	x	x	-9%
59	CC(C)OC(=O)/C(=C\c1ccccc1)NC(=O)c1ccccc1	33%[activator]	x	-3%	2%	x	x	x	0%
60	CCc1ccc(N2CCN(C(=O)N3CCOCC3)CC2)cc1	3%	-12%[46.1 µM]	1%	-4%	-22%	x	x	0%
